NS1 inh – qHTS Assay for Inhibitors of Influenza NS1 Protein Function | S. cerevisiae slowed by influenza A NS1, growth recovery by OD600 | Potency, µM (titrated, usually from 46.1 µM), for inactives: at the top dose activity, positive = more growth | 270,000 tested, 0.4% active | AID 2326, 2010; active means well fitted rising curve with a large enough effect; inconclusive means small, poorly fitted or top-dose-only effect; inactive means no such curve, though single readings can be large or run the other way; also: nearly all actives have a fitted effect of over 50% in size
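Recovery from NS1-induced slow growth read by OD600 in budding yeast switched to galactose assay medium (pH 6.0, -URA) at 1:100 dilution. Compound 23 nl per well; the matching strain lacking NS1 serves as control.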
LASV entry inh – qHTS for Inhibitors of binding or entry into cells for Lassa Virus; Lassa virus pseudotype entry inhibition, cell reporter; control for the full effect not named in the record; Potency, µM (top dose mostly 37.9 µM), without a hit: top-dose activity change, negative = inhibition, hits mostly inhibitors; 300,000 tested, 1.2% active; active means well fitted inhibition curve with a large enough effect; inconclusive means small, poorly fitted or top-dose-only effect, or effect the other way; inactive means flat fitted curve, though single readings scatter; tested in HEK293 cells; also: % is scaled to controls: 0 for no effect and ±100 for the full control effect; nearly all actives have a fitted effect of over 50% in size; luciferase read-out
StopGo reporter – High Throughput Screening for Foot and Mouth Disease Virus Antivirals. 410,000 tested, 1.2% active. human cells with a luciferase reporter of 2A StopGo recoding; control for the full effect not named in the record. Potency, µM (series often up to 57.9 µM), without a hit: top-dose signal change, negative = less light; active = well fitted falling curve with a large enough effect; inconclusive = small, poorly fitted or top-dose-only effect; inactive = no such curve, though single readings can be large or run the other way; tested in HEK293T cells; also: % is scaled to controls: 0 for no effect and ±100 for the full control effect; nearly all actives have a fitted effect of over 45% in size; luciferase light after 4 h
Cruzain inh noDet – qHTS Assay for Promiscuous and Specific Inhibitors of Cruzain (without detergent); Cruzipain (Trypanosoma cruzi), P25779; purified cruzain, Z-FR-AMC fluorescence, no detergent; Potency, µM, without a hit: max response, negative = inhibition, actives largely listed as inhibitors; 200,000 tested, 2.3% active;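 also: plate controls were enzyme without inhibitor for no effect and buffer without enzyme for full effect; nearly all actives have a fitted effect of over 40% in size; top concentration of the series not given in the record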
Target sequence (P25779 123-467 limits assumed): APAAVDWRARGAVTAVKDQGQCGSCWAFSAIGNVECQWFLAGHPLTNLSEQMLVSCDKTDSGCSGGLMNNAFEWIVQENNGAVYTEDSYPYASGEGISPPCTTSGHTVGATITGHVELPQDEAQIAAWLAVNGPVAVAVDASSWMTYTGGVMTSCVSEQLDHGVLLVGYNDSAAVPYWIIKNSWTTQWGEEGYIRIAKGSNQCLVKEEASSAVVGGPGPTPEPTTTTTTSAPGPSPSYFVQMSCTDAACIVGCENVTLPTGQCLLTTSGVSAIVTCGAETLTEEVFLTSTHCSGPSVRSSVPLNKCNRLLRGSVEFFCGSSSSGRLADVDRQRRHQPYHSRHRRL
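Detergent-free condition (0.00005% Triton X-100) in acetate buffer pH 5.5 with DTT. 1.5 nM enzyme and compound were pre-mixed 15 min, then 2 uM Z-FR-AMC substrate added; reaction progress from fluorescence change between first and third reads (60 s).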
RE007 growth inh – qHTS Assay for Inhibitors of the HIV-1 protein Vpr; S. pombe RE007 Vpr strain, BacTiter-Glo ATP luminescence, 24 h; control for the full effect not named in the record; Potency, µM (doses to about 92.2 µM), for the others: top-dose activity change, negative = less growth; 360,000 tested, 0.21% active; AID 651644, 2012; active = well fitted falling curve with a large enough effect; inconclusive = small, poorly fitted or top-dose-only effect; inactive = no such curve, though single readings can be large or run the other way;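 also: % is scaled to controls: 0 for no effect and ±100 for the full control effect; nearly all actives have a fitted effect of over 50% in size; the assay follows cell death caused by Vpr and the record does not say whether a fall means rescue or toxicity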
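Fission yeast strain RE007, carrying one chromosomally integrated HIV-1 vpr copy, was seeded at OD 0.01 in PMG+AL medium with 23 nL pinned compound. After 24 h at 30 °C and 99% humidity, viability was read by BacTiter-Glo luminescence.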
Cruzain inh Det – qHTS Assay for Promiscuous and Specific Inhibitors of Cruzain (with detergent). Cruzipain (Trypanosoma cruzi), P25779. purified cruzain, Z-FR-AMC fluorescence, 0.01% Triton. Potency, µM, for inactives: max response, negative = inhibition, actives largely listed as inhibitors. 200,000 tested, 0.43% active. AID 1478, 2009;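 also: plate controls were neutral wells for no effect and buffer without enzyme for full effect; nearly all actives have a fitted effect of over 40% in size; top concentration of the series not given in the record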
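Cruzain (1.5 nM) preincubated 15 min at RT with compound in 100 mM sodium acetate pH 5.5, 5 mM DTT, 0.01% Triton X-100. Reaction started with 2 uM Z-FR-AMC; AMC fluorescence (ex 360/em 450 nm) change over 60 s gave rate.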
SARS PLpro yeast – qHTS of Yeast-based Assay for SARS-CoV PLP | S. cerevisiae expressing SARS-CoV PLpro, growth rescue; control for the full effect not named in the record | Potency, µM (highest dose often 32.9 µM), without a hit: at the highest dose activity, positive = growth rescue | 330,000 tested, 0.19% active; active means well fitted rising curve with a large enough effect; inconclusive means small, poorly fitted or top-dose-only effect; inactive means no such curve, though single readings can be large or run the other way; also: 0% is about no effect; nearly all actives have a fitted effect of over 55% in size; growth read by luminescence after 48 h
MARV entry inh – qHTS for inhibitors of binding or entry into cells for Marburg Virus | Potency, µM (titrated, usually from 37.8 µM), for the others: at the top dose activity change, negative = inhibition, usual class: inhibitors | Marburg virus pseudotyped entry inhibition, cell reporter; control for the full effect not named in the record; about a third of the inactives were read at about 46 µM | 300,000 tested, 1.8% active; active = well fitted inhibition curve with a large enough effect; inconclusive = small, poorly fitted or top-dose-only effect, or effect the other way; inactive = flat fitted curve, though single readings scatter; tested in HEK293 cells; about a fifth of its hits are not listed in these tables; also: % is scaled to controls: 0 for no effect and ±100 for the full control effect; luciferase read-out
* hit, by the source's call; ? = inconclusive; . = not tested or not shown; & = joins results of further samples; [ ] = remark or other dose. Unless noted, calls follow the shape of the dose curve; as a rule, active = well fitted curve in the direction sought with a large enough effect; inconclusive = small, poorly fitted or top-dose-only effect, or another doubt; inactive = no such curve, though single readings can be large; an effect the other way counts as inactive or inconclusive. Potency is read from the fitted curve at half-maximal effect. Rows are unselected (roughly 4.7% active in at least one column).

nr | compound | NS1 inh | LASV entry inh | StopGo reporter | Cruzain inh noDet | RE007 growth inh | Cruzain inh Det | SARS PLpro yeast | MARV entry inh
1 | C/C(Nc1ccc(Cl)cc1)=C1/CCOC1=O | . | -22% | 8% | . | 11% | . | . | 20%
2 | O=C(c1cc2ccccc2oc1=O)N(Cc1cccs1)C1CCS(=O)(=O)C1 (stereo unspecified) | -7% | 16% | 24% | 0% | 5% | -2.9% | 1% | ?
3 | COc1cc(NS(=O)(=O)c2ccc(-c3ccc(=O)[nH]n3)o2)cc(OC)c1OC | -1% | 1%[46.1 µM] | 24% | . | 2% | . | 2% | 11%[46.1 µM]
4 | COC(=O)C(C)Oc1ccc(Oc2nc(Cl)ccc2Cl)cc1 (stereo unspecified) | -6% | . | -12% | . | 6% | . | -1% | .
5 | COc1ccc(Nc2c3c(nc4ccc(NC(=O)/C=C/c5cc(OC)c(OC)c(OC)c5)cc24)CCCC3)cc1OC | . | ? | 0% | -5% | . | -26% | . | ?
6 | CCC1CCCCN1CC(O)Cn1c2ccccc2n2c(=O)cc(C)c(C#N)c12 (stereo unspecified) | 9% | 16% | 0% | 2% | -11% | -6.6% | -19% | ?
7 | COc1ccc(Cn2nnnc2CN2CCC(O)(c3ccccc3F)CC2)cc1 | -6% | ? | -11% | . | 4% | . | 1% | ?
8 | CNC(=O)c1cn(-c2ccccc2)c(=O)c2ccccc12 | 0% | 3% | 1% | -4% | -6% | -0.9% | -2% | 8%
9 | COc1cc(OC)cc(-c2nc3n(n2)C(c2ccccc2)C(C(N)=O)=C(C)N3)c1 (stereo unspecified) | . | 1%[46.1 µM] | -3% | 4% | . | -4.1% | . | -16%[46.1 µM]
10 | COc1ccc(C(=O)Nc2nc(N)n(-c3ccccc3)n2)cc1OC | 4% | -3% | -1% | -17% | -2% | 2.2% | -1% | 2%&2%
11 | CC(C)C(=O)Nc1ccc2nc(SCC(=O)N3CCc4ccccc43)sc2c1 | . | -6%[46.1 µM] | 35µM* | 12% | . | -3.6% | . | -19%[46.1 µM]
12 | CCCOC1(NC(=O)c2ccccc2)C(C)=CC(=O)C=C1C | -2% | 1% | -9% | -5% | 5% | 3.6% | -1% | 3%
13 | CCOc1cccc2sc(=NC(=O)CCS(=O)(=O)c3ccccc3)n(CC)c12 | -3% | . | ? | . | -15% | . | ? | .
14 | CCN1CCN(Cc2c(O)ccc3c(=O)c(Oc4ccccc4Cl)c(C(F)(F)F)oc23)CC1 | . | 7%[46.1 µM] | -28% | 12% | . | -2.4% | . | 19%[46.1 µM]
15 | CC(C)CN(C(=O)c1cccs1)C1CCS(=O)(=O)C1 (stereo unspecified) | . | -21% | -11% | . | 1% | . | 1% | -1%[46.1 µM]
16 | Cc1ccc(S(=O)(=O)c2cn(CC(=O)Nc3ccc4c(c3)OCO4)c3ccccc3c2=O)cc1C | . | -4%[46.1 µM] | 20% | ? | . | -3.4% | . | 0%[46.1 µM]
17 | Cc1ccc(OC(=O)C(C)c2cccc(C(=O)c3ccccc3)c2)cc1 (stereo unspecified) | 6% | 6% | . | -3% | -1% | -1.0% | -3% | 34%
18 | O=C(Cc1cc(=O)[nH]c(=O)[nH]1)NCCN1CCOCC1 | -34% | . | 0% | -9% | 0% | -0.5% | -9% | .
19 | CCCN1CCc2c(sc3nc(SC)n(-c4ccccc4)c(=O)c23)C1 | -3% | -2%[46.1 µM] | -27% | . | -14% | . | 1% | 0%[46.1 µM]
20 | O=c1[nH]c2ccccc2nc1CCc1ccccc1 | . | 27% | 27% | . | -2% | . | -4% | 4%
21 | CCOc1ccccc1CNC(=O)C1CCN(C(=O)N2CC(C)Oc3ccc(C)cc32)CC1 (stereo unspecified) | -21% | . | ? | . | 8% | . | 0% | .
22 | COc1ccccc1NC(=O)C(=O)NCC(c1ccc2c(c1)OCO2)N1CCOCC1 (stereo unspecified) | . | 0%[46.1 µM] | 1% | -4% | . | 1.3% | . | .
23 | COc1ccc(S(=O)(=O)N(C)c2ccc(C(=O)NCc3ccncc3)cc2)cc1 | -3% | 11% | -6% | . | -6% | . | 0% | -17%
24 | CCCCCn1c(=O)[nH]c2cc(C(=O)NCCN(C)CCCC)ccc2c1=O | . | ? | -19% | 2% | . | 0.2% | . | ?
25 | COc1cc(C(=O)N/C(=C\c2cn(C)c3ccccc23)C(=O)NCCCO)cc(OC)c1OC | 0% | . | -9% | . | 13% | . | 1% | .
26 | COC(=O)C(C)Oc1ccc(-c2nccc(-c3ccc(F)cc3)n2)cc1 (stereo unspecified) | 7% | . | -1% | . | -6% | . | -7% | .
27 | COC(=O)C(C(=O)OC)c1ncc(C(F)(F)F)cc1Cl | 5% | 6% | 3% | . | -6% | . | 0% | 1%
28 | Cc1ccc(Cl)cc1N1CCN(C(=O)c2cn(C)c3ccc(S(=O)(=O)N4CCCC4)cc3c2=O)CC1 | . | -3%[46.1 µM] | -2% | 23% | . | -4.5% | . | -20%[46.1 µM]
29 | Cc1ccc(N2CCN(S(=O)(=O)c3cc(Br)cc4c3N(C(=O)C3CC3)CC4)CC2C)cc1 (stereo unspecified) | . | ? | -11% | 2% | . | -0.9% | . | -4%[46.1 µM]
30 | Cc1ccc(/C=C/c2nc3ccccc3n2S(=O)(=O)c2ccc(Br)cc2)cc1 | . | ? | -65% | 5% | . | -1.7% | . | .
31 | CC(C)(C)n1nnnc1C(c1ccc(Cl)cc1)N1CCCc2ccccc21 (stereo unspecified) | 0% | 11% | -14% | 3% | 19% | 0.1% | 0% | ?
32 | CCOC(=O)C(NCCCCl)c1ccccc1 (stereo unspecified) | 6% | 6% | -5% | 0% | 18% | 5.2% | 12% | 6%[46.1 µM]
33 | CN(C)S(=O)(=O)N(CC(=O)NCCSCc1cccc(Cl)c1)c1ccccc1 | . | -30%[46.1 µM] | -19% | 11% | . | -6.6% | . | -9%[46.1 µM]
34 | Cc1ccc(C(=O)c2c3ccc(N)cc3nn2CCC(N)=O)cc1 | 21% | . | 10% | . | -21% | . | 0% | .
35 | COC(=O)CSc1nc(COc2ccccc2)nc2ccccc12 | -91% | . | -5% | . | 3% | . | -7% | .
36 | Cc1c(NC(=O)C2CCCN2C(=O)c2cccs2)c(=O)n(-c2ccccc2)n1C (stereo unspecified) | -1% | 0% | 10% | ? | 4% | 3.2% | 2% | 9%
37 | Cc1cc(NC(=O)C2=C(O)c3ccccc3S(=O)(=O)N2C)no1 | 1% | -6% | -27%&-3% | 1%&-9%&0% | 4% | -0.6%&0.1%&-0.8% | 5% | 3%
38 | Cc1c(Cl)cccc1NC(=O)CCN1CCC(C(N)=O)CC1 | 9% | . | 1% | . | 17% | . | 1% | .
39 | O=c1c2c3c(sc2nc2n1CCCCC2)C(O)CCC3 (stereo unspecified) | 0% | 10% | 65%[activator] | . | -16% | . | 1% | ?
40 | COc1ccc(-c2ccc(=O)n(CC(=O)Nc3nnc(C(C)C)s3)n2)cc1OC | 10% | -29% | -3% | -1% | -1% | 4.0% | 3% | 0%
41 | COc1ccccc1NC(=O)c1c(NC(=O)c2ccco2)sc2c1CCC(C(C)(C)C)C2 (stereo unspecified) | . | 4%[46.1 µM] | -12% | -6% | . | -1.3% | . | 7%[46.1 µM]
42 | CCNc1ccc2noc3c2c1C(=O)c1ccccc1-3 | 16% | -11% | -21% | ? | -20% | -7.8% | -66% | -4%
43 | CCOC(=O)Cc1cnc(NC(=O)CSc2nc(C(C)C)cc(=O)[nH]2)s1 | 1% | -7% | -7% | . | 5% | . | 4% | 16%
44 | CCOC(=O)c1cn(CC)c2ccc(S(=O)(=O)N3CCC(C)CC3)cc2c1=O | 23% | -2% | 9% | ? | 0% | 5.3% | 16% | -19%
45 | COCCCNC(=O)Cn1c(=O)n(CC(=O)N2CCCCC2)c(=O)c2sccc21 | -5% | . | -14% | . | 0% | . | ? | .
46 | CN1CCN(S(=O)(=O)c2ccc(SCCOc3ccccc3)nc2)CC1 | -7% | ? | -20% | -1% | -20% | 1.2% | 1% | ?
47 | COCCNC(=O)CSc1nc2ccc(N3CCOCC3)cc2c(=O)n1CCc1ccccc1 | -40% | -29% | -2% | ? | -10% | -7.0% | 2% | -11%&-11%
48 | O=C1CCCC(=O)C1C(c1ccc(Cl)cc1)C1C(=O)CCCC1=O | . | -1% | -10% | . | 3% | . | -5% | 22%
49 | Cc1ccc(NS(=O)(=O)c2ccc(Cl)c(C(=O)Nc3ccccc3-c3nc4ccccc4[nH]3)c2)cc1C | ? | ? | -46% | ? | 5% | -1.5% | -10% | ?
50 | CSc1sccc1/C=N/O | 3% | 4% | 0% | . | 0% | . | 0% | ?
51 | Cc1ccccc1NC1=NCCCS1 | -2% | 1% | 6% | -1% | -6% | -2.1% | -1% | 6%

Looked up by structure from above (2):
nr | compound | NS1 inh | LASV entry inh | StopGo reporter | Cruzain inh noDet | RE007 growth inh | Cruzain inh Det | SARS PLpro yeast | MARV entry inh
25 | COc1cc(C(=O)N/C(=C\c2cn(C)c3ccccc23)C(=O)NCCCO)cc(OC)c1OC | 0% | . | -9% | . | 13% | . | 1% | .
9 | COc1cc(OC)cc(-c2nc3n(n2)C(c2ccccc2)C(C(N)=O)=C(C)N3)c1 (stereo unspecified) | . | 1%[46.1 µM] | -3% | 4% | . | -4.1% | . | -16%[46.1 µM]

Filtered by structure, those above with a CF3 group (two)
nr | compound | NS1 inh | LASV entry inh | StopGo reporter | Cruzain inh noDet | RE007 growth inh | Cruzain inh Det | SARS PLpro yeast | MARV entry inh
14 | CCN1CCN(Cc2c(O)ccc3c(=O)c(Oc4ccccc4Cl)c(C(F)(F)F)oc23)CC1 | . | 7%[46.1 µM] | -28% | 12% | . | -2.4% | . | 19%[46.1 µM]
27 | COC(=O)C(C(=O)OC)c1ncc(C(F)(F)F)cc1Cl | 5% | 6% | 3% | . | -6% | . | 0% | 1%

High-throughput results deposited in PubChem BioAssay by National Center for Advancing Translational Sciences (NCATS).
